# A1 inh – inhibitors of the anti-apoptotic protein A1, read as caspase activation | MEF A1-2A-BIM cells, Caspase-Glo 3/7 luminescence, 3 h; percent of clofoctol response, vehicle zero | caspase activation, % (test concentration not listed) | actives 0.066% (n = 330,000);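 active means over half of replicate activation scores above 10%, or exactly half above 10 with the replicate mean above 10; inconclusive means replicate mean below 10 yet half the replicates above 10; inactive means over half of replicates below 10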;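 further: wells of about 30 µL received 50 nL stock; many hits fall short of the cut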
# RanGTP-Impb inh – disruptors of Ran-importin-beta complex formation – biochemical, FRET, CFP-Ran, YFP-importin-beta, homogeneous, primary screen; cell-free CFP-Ran/YFP-importin-beta FRET ratio; inhibition, % (test concentration not listed); actives 1.1% (n = 300,000); AID 2216;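 active means most replicates above 15%; inconclusive means exactly half above 15%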;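 further: 0% = DMSO wells and 100% = Ran loaded with GDP instead of GTP; wells of about 40 µL received 100 nL stock; the first replicate is given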
# Ecoli rRNA inh – inhibitors of bacterial rRNA selective over humanized ribosomes; E. coli WT GFP vs humanized-ribosome RFP mutants, fluorescence, 24 h; active compounds read low; DMSO median 0, no signal -100; GFP signal change (wild-type ribosome), % (test concentration not listed); actives 1.6% (n = 350,000);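 active means significant combined selectivity score with lowered wild-type GFP, culture density cut under 30%, mutant RFP and density less affected; inactive means any of these conditions unmet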; further: one replicate is shown; some compounds called inactive have numbers as strong as hits
# Vif TR-FRET – inhibitors of Vif binding to APOBEC3G peptide, primary screen, biochemical, TR-FRET, GST-Vif 1-94, biotin-A3G peptide, dose response retest (AID 1117319). TR-FRET GST-Vif / biotin-A3G peptide binding; higher % means a stronger effect; test concentration not given here; strong numbers were not always called active. inhibition, %, or IC50 in µM where a hit was titrated. actives 0.57% (n = 260,000);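 active means above the screen mean plus three standard deviations and confirmed in dose response; inconclusive means results disagree or hit not tested in dose response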;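 further: Vif residues 1-94 fused to GST binding biotinylated APOBEC3G peptide 110-148; 0% = full assay without inhibitor and 100% = GST in place of GST-Vif; retest series ran down from 100 µM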
# T cruzi repl – blocks replication of Trypanosoma cruzi; T. cruzi beta-gal in NIH3T3, luminescence, 90 h; inhibition, % (concentration not given with the values); actives 1.4% (n = 300,000); AID 1885;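 active means mean inhibition across valid replicates above about 55%, limit read from the data; inconclusive means mean below that limit but half or more replicates reach it; inactive means mean below it, under half of replicates reach it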;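 further: signal also drops with host cell toxicity which is not excluded here; 0% = plate median of DMSO wells and 100% = zero luminescence signal; higher percent means less beta-gal luminescence so fewer parasites; stock transfer was 50 nL into about 50 µL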
# Beta cell apopt – beta cell apoptosis inhibition; AID 435005; actives 0.8% (n = 300,000); protection from apoptosis, % (no concentration beside the values); INS-1E cytokine-induced death, ATP luminescence, 48 h; percent of positive-control rescue, neutral wells zero;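 active means all replicates at 75% or more, or half of them and the mean; inconclusive means half reach 75% but not the mean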;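 further: 0% = cytokine-treated negative control wells and 100% = positive control rescue; higher means more ATP so stronger rescue from cytokine killing; wells of about 40 µL received 100 nL stock; the first replicate is given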
# AF4-AF9 inh – MLL-AF4/AF9 protein interaction inhibition; actives 0.47% (n = 350,000); AlphaScreen, biotin-AF4 peptide binding to FLAG-AF9; P42568; AID 651704; inhibition, % at 10 µM;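 active means every replicate reaching a set inhibition limit, whatever the replicate mean, cut at about 25% in these data; inconclusive means mean inhibition reaches that limit but some replicates miss it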;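 further: 0% = plate neutral control median and 100% = total signal loss; the record names both 10 and 1 µM as test concentration; the first replicate is given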
# Target sequence (P42568 whole entry, looked up): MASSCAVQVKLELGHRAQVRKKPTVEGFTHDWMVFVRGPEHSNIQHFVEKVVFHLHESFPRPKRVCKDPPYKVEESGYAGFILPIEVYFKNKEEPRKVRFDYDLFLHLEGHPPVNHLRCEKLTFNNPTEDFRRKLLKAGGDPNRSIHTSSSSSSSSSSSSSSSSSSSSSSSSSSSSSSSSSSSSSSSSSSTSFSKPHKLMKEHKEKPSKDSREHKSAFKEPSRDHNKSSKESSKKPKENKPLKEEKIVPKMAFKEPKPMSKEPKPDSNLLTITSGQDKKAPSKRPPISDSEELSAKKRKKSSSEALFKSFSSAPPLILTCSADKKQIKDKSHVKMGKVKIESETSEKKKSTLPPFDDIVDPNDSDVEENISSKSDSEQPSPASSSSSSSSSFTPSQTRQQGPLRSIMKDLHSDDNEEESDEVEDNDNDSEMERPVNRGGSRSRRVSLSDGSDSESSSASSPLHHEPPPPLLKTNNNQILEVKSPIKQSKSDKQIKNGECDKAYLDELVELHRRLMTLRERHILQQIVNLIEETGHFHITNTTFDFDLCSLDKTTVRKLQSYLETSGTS
# Calb FLC – C. albicans growth modulation with fluconazole | C. albicans CaCi-2 (fluconazole-resistant clinical isolate) + fluconazole, Alamar Blue growth, 48 h | growth inhibition, % (concentration not given with the values) | actives 0.57% (n = 300,000) | AID 1979;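 active means most replicates above 75%; inconclusive means exactly half above 75%; inactive means most below 75%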;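 further: all wells also contain fluconazole at 8 µg/ml as a sub-toxic cotreatment; 0% = median of DMSO wells and 100% = median of geldanamycin control wells; wells of about 8 µL received 7.5 nL stock; the first replicate is given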
# Ecoli rRNA inh OD600 – also measured in Ecoli rRNA inh; calls as there; OD600 change, %; measured here: OD600 growth;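 optical density of the mix in the first replicate; 0 = DMSO median and -100 = no signal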
# Ecoli rRNA inh RFP – also measured in Ecoli rRNA inh; calls as there; RFP signal change, %; measured here: RFP humanized mutant strains;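 first replicate; 0 = DMSO median and -100 = no signal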
# * hit, by the source's call; ? = inconclusive; nt = not tested or not shown; & = joins results of further samples.
# The first 2 compounds (preview)
structure,Ecoli rRNA inh,Vif TR-FRET,AF4-AF9 inh,Ecoli rRNA inh RFP,RanGTP-Impb inh,Ecoli rRNA inh OD600,Beta cell apopt,Calb FLC,A1 inh,T cruzi repl
CC(C)COc1ccc(-c2nnc(-c3ccncc3)o2)cc1,nt,-3%,nt,nt,0.6,nt,6,7,-3.0,22
COc1cc(NC(=O)Nc2c(C)n(C)n(-c3ccccc3)c2=O)cc(OC)c1OC,4,-1%,-9.6,1.8,1.1,10,-4,16,2.2,-3

# The whole of this part, from the first entry:
structure,Ecoli rRNA inh,Vif TR-FRET,AF4-AF9 inh,Ecoli rRNA inh RFP,RanGTP-Impb inh,Ecoli rRNA inh OD600,Beta cell apopt,Calb FLC,A1 inh,T cruzi repl
CC(C)COc1ccc(-c2nnc(-c3ccncc3)o2)cc1,nt,-3%,nt,nt,0.6,nt,6,7,-3.0,22
COc1cc(NC(=O)Nc2c(C)n(C)n(-c3ccccc3)c2=O)cc(OC)c1OC,4,-1%,-9.6,1.8,1.1,10,-4,16,2.2,-3
CCN(CC)c1ccc(S(=O)(=O)N2CCCCC2)cc1NC(=O)CN1C(=O)NC2(CCCC2)C1=O,0,-3%,5.6,3.1,5.3,2,4,-4,0.6,25
O=C(NC1CCCCC1)N1CCCc2ccccc21,nt,14%,nt,nt,-1.7,nt,-1,32,0.5,-2
COc1cccc(CNC(=O)CCn2c(=O)oc3ccccc32)c1,nt,1%,nt,nt,?,nt,-2,-2,-0.6,-13
COc1ccc(/C=C2/C(=O)C(C)(C(C)C)CCC2C)cc1 (stereo not given),7,-7%,1.7,0.5,6.1,11,5,-1,0.1,15
CC1(C)CC2(CCO1)OC(=O)CC2C(=O)NCCc1ccccc1 (stereo not given),nt,1%,nt,nt,9.0,nt,-3,0,-0.7,-2
Cc1nc2ccc(N)cc2s1,-3,2%,-2.7,-1.9,-4.3,2,nt,-6,-0.2,-12
CN(C)c1ccc(-c2nnn(CC(=O)Nc3ccc4c(c3)OCCO4)n2)cc1,19,6%,-1.3,2.4,5.1,12,-2,0,0.0,7
CCOC(=O)c1c(SCC(=O)Nc2nccs2)nc(C)c(C)c1C,-16,nt,-1.0,-1.1,-1.5,-17,12,15,-0.4,7
COc1cc(C(=O)NCCCNC(=O)c2cc(OC)c(OC)c(OC)c2)cc(OC)c1OC,3,nt,-4.4,1.2,3.5,1,-1,5,0.1,0
Cn1c(SCCN2CCCCC2)nnc1-c1ccccc1Br,nt,-1%,nt,nt,2.6,nt,2,-4,0.1,11
CCCc1cc(=O)[nH]c(SCC(=O)NC)n1,nt,5%,nt,nt,0.2,nt,-7,?,0.0,-9
O=C(CSc1nc2ccccc2c(=O)n1CC1CCCO1)Nc1ccc(F)cc1 (stereo not given),-3,nt,-0.8,-3.0,-1.7,6,-4,-1,-0.5,18
COc1ccc(CNc2ccc([N+](=O)[O-])cn2)cc1,14,3%,0.4,15,0.8,-3,-4,2,0.6,-5
O=C(c1ccccc1)c1ccc(C(=O)N2CCN(c3ccc(F)cc3)CC2)o1,nt,2%,nt,nt,-1.0,nt,-4,3,-0.2,12
O=C(Nc1ncc(C(F)(F)F)cc1Cl)C1COc2ccccc2O1 (stereo not given),nt,14%,nt,nt,5.0,nt,-5,0,0.1,7
CCOC(=O)CN1C(=N)N(c2nc(NC(C)C)nc(OC)n2)CC1=O,3,2%,-1.4,-2.6,2.3,-8,3,-3,0.0,1
CCN(CC)S(=O)(=O)c1cccc(C(=O)NN2Cc3ccccc3C2=N)c1,10,nt,1.5,2.8,-1.1,3,-7,25,-0.8,-19
Cc1ccc2c(c1)/C(=N/O)CCS2,nt,-3%,nt,nt,0.4,nt,0,-12,0.3,1
CCN(CC)S(=O)(=O)c1ccc(N2CCOCC2)c(NC(=O)COc2ccc(C#N)cc2)c1,9,-5%,-0.7,0.5,-0.3,5,nt,-2,nt,6
COC(=O)C1=CN(c2ccc(Cl)cc2)C=C(C(=O)OC)C1c1ccc([N+](=O)[O-])cc1,4,nt,2.2,0.8,-3.9,7,22,-9,-0.1,52
COc1ccc(N(CC(=O)Nc2cc(OC)ccc2OC)S(=O)(=O)c2c(C)nn(C)c2C)cc1,5,3%,14,6.1,-2.5,-1,0,-6,0.0,-3
CC(C)Oc1cccc(C(=O)C2CCCN(C(=O)c3ccoc3)C2)c1 (stereo not given),-16,3%,3.0,1.4,4.4,-9,-4,-4,-0.4,3
COc1ccc(CCn2c(=N)c(C(=O)NCC3CCCO3)cc3c(=O)n4ccccc4nc32)cc1 (stereo not given),4,nt,-8.5,-2.5,-0.3,10,-4,-1,0.2,1
Cc1cc(Sc2nc(N(C)C)nc(N(C)C)n2)nc(Cl)n1,3,nt,-40,-0.3,0.4,-3,-5,3,-0.6,-6
COc1cc(/C=C2\CC(C(C)(C)C)C/C(=C\c3cc(OC)c(OC)c(OC)c3)C2=O)cc(OC)c1OC (stereo not given),6,3%,6.5,-1.6,?,0,98*,4,-1.0,50
CCCCN(CCCC)Cc1ccc(N)cc1,nt,-2%,nt,nt,-3.3,nt,-1,-2,0.2,-18
O=C(NCC1CCCO1)c1ccc(COc2ccccc2)o1 (stereo not given),4,0%,0.1,-0.2,1.2,10,nt,11,0.2,0
COc1cc(/C=C2\SC(N3CCC(C)CC3)=NC2=O)ccc1O,-15,nt,5.2,-0.7,-6.6,-8,7,6,0.9,-4
N[C@@H](Cc1c[nH]c2ccccc12)C(=O)O,nt,74%,nt,nt,-0.5,nt,nt,-11,nt,4
O=C(CSc1nccn1Cc1ccco1)Nc1ccccc1,-6,nt,0.7,-4.7,-1.5,3,2,0,0.1,-13
Clc1ccc2nc(C3CCN(Cc4ccccc4)CC3)[nH]c2c1,nt,4%,nt,nt,7.2,nt,5,7,-0.5,?
COc1ccc(CNC(=O)c2ccc3c(=O)n(CCCN4CCCC4=O)c(=S)[nH]c3c2)cc1,9,-3%,1.1,0.9,-0.1,19,-11,-17,-0.6,-4
NC(N)=Nc1nc(-c2ccccc2)c2cc(F)ccc2n1,-19,nt,13,9.1,-2.6,-50,-1,4,0.4,21
COc1ccc(NC2=NCCCCC2)cc1,21,nt,-0.7,1.7,5.8,16,-12,4,-0.6,-7
O=C(Cn1cc(C(F)(F)F)ccc1=O)NCCc1ccc(Cl)cc1Cl,nt,nt,nt,nt,?,nt,-2,-1,1.2,22
CC(=O)N1CCc2c(sc(NC(=O)Cc3ccccc3)c2C(N)=O)C1,8,nt,-7.5,0.9,5.2,7,7,-1,0.8,3
O=C(/C=C/c1ccco1)N1CCN(C/C=C/c2ccccc2)CC1,nt,13%,8.2,nt,0.9,nt,-7,54,-0.3,-15
CCN(CC)S(=O)(=O)c1cccc(N=NC2=C(O)CCCC2=O)c1,nt,?,nt,nt,-2.8,nt,-5,0,-0.3,10
Cc1ccc(S(=O)(=O)N2CCN(Cc3ccccc3C(F)(F)F)CC2)cc1,nt,2%&3%,nt,nt,3.5,nt,-7,-8,-0.1,0
CC1=CC(C)(C)N(C(=O)CN2C(=O)c3ccccc3C2=O)c2ccc(C)cc21,nt,nt,nt,nt,-0.8,nt,-2,7,0.5,-14
O=C(Nc1ccon1)c1cc2c(s1)CCCCCC2,nt,-1%,nt,nt,0.5,nt,-2,-20,-0.2,14
O=C(C1=C[C@@H](C2CCCCC2)C[C@@H](OCc2ccc(CO)cc2)O1)N1CCN(Cc2ccccc2)CC1,-12,?,4.5&4.7,10,-1.4,-36,8,-3,0.1,43
Cc1nc2scc(-c3ccccc3)c2c(=O)n1N=C1C=CC(=O)C=C1,-14,nt,19,-2.8,-3.0,-19,nt,22,nt,67*
COc1ccc(OCC#CCN2CC(C)OC(C)C2)cc1 (stereo not given),nt,6%,nt,nt,-2.1,nt,3,?,0.1,7
C=CCOC(=O)C1=C(C)OC(N)=C(C#N)C1c1ccco1 (stereo not given),10,-5%,3.0,5.0,3.5,3,4,-8,0.6,-19
Cc1ccc(NC(=O)c2ccccc2-c2cc(C)no2)cc1,17,1%,0.6,2.0,2.7,0,-4,-10,0.1,-6
Cc1cc(C(=O)NNS(=O)(=O)c2ccc(F)cc2)nn1C(C)(C)C,13,-18%,1.9,1.1,2.6,6,-3,-31,-0.6,3
CCn1c(SCC(=O)c2ccc(F)cc2)nnc1-c1ccoc1C,nt,72%,nt,nt,1.9,nt,-2,3,-0.9,15

# Next section
structure,Ecoli rRNA inh,Vif TR-FRET,AF4-AF9 inh,Ecoli rRNA inh RFP,RanGTP-Impb inh,Ecoli rRNA inh OD600,Beta cell apopt,Calb FLC,A1 inh,T cruzi repl
CCN(C(=O)CSc1nc2ccccc2c(=O)n1-c1cccc(C)c1)C1CCS(=O)(=O)C1 (stereo not given),6,5%,2.2,-2.8,3.5,7,-7,1,1.7,12
COCCCNC(=S)N1CCN(c2nc3ccccc3s2)CC1,-30*,nt,-0.3,-3.4*,-0.8,-21*,-1,-1,-1.1,1
CC(C)(C)OC(=O)[C@H](Cc1ccccc1)NC(=O)c1nc[nH]c1C(=O)NCCCCCN,9,nt,0.4,2.1,1.1,9,-6,10,1.4,-1
C=CC[N+]1(CC#Cc2ccccc2)CCCC1,19,3%,-0.3,-0.7,0.9,19,-7,-14,1.4,-13
Cc1ccc(S(=O)(=O)NCC(C)NC(=O)CN2CCOCC2)cc1 (stereo not given),3,nt,-0.5,-2.3,-1.5,8,-3,-1,-0.2,-5
CC(=O)Nc1cccc(NC(=O)C(C)N2c3cccc4cccc(c34)S2(=O)=O)c1 (stereo not given),-23,nt,2.5,-8.3,-2.2,-38,nt,2,0.3,-1
Cc1cc(C)nc(NC(=O)Cc2ccc(Cl)cc2)c1,-14,-5%,-5.2,-1.0,-0.5,-10,-10,-19,-0.1,-1
Cc1cc(O)ccc1C1(c2ccc(O)cc2C)OC(=O)c2ccccc21,nt,-1%,nt,nt,-1.5,nt,-3,0,0.2,-23
CC(=O)c1ccc(NC(=O)CSc2nnc(-c3ccncc3)n2C2CC2)cc1,10,nt,0.3,-2.1,nt,14,-7,nt,-1.3,nt
O=C(NC1CCN(Cc2ccccc2)CC1)c1cc(Br)c(Br)[nH]1,1,-3%,-0.6,0.7,-0.3,1,-2,2,1.7,70*
COc1ccc(N2CCN(C(=O)C3CCCO3)CC2)cc1 (stereo not given),nt,18%,nt,nt,12,nt,-2,-4,0.5,1

# Screens as filed in PubChem BioAssay.

# Some of the compounds tested, so the mix of outcomes need not match the whole.
